Sa helicase inh = inhibitors of S. aureus replicative helicase, primary screen, biochemical, fluorescence unwinding readout; purified S. aureus helicase, fluorescence unwinding assay; about half of the hits fall short of the stated cut; inhibition, %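 (tested at about 80 µM)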; 0.05% of 120,000 active; AID 485395, 2010;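 active means both duplicates at 50% or more, or one of them with a favoured structure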;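 further: 0% = mean of negative control wells and 100% = mean of positive control wells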
MgrA-DNA mod = S. aureus MgrA activity modulators, primary screen, biochemical, S. aureus Newman, fluorescence polarization; MgrA-DNA binding; inhibition, %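 (about 10 µg/mL by stock and volumes)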; 0.13% of 84,000 active;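 active means above 50% in either of two replicates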;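 further: 0% = protein plus DNA without compound and 100% = DNA alone without protein; higher means less MgrA bound to DNA so lower polarization; one replicate is shown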
Numbers without * were called inactive; x = no result given. The list is partial. The share of hits here may be higher or lower than overall.

Values run as follows: Sa helicase inh | MgrA-DNA mod
1	COc1ccc(NC(=O)C2C3NC(=S)NC2(C)Oc2ccccc23)cc1 (stereo not drawn)
  4 | x
2	NC(=O)CN1C(=O)c2ccccc2S1(=O)=O
  x | -0.8
3	COc1ccc(-c2cc(C(=O)NCc3ccccc3)no2)cc1
  6 | x
4	COC(=O)c1cc(-c2cncnc2-c2ccc(OC)c(C)c2O)c(C)o1
  2 | -0.9
5	CCOC(=O)c1noc(N)c1C#N
  x | 0.8
6	COCCN(C(=O)c1cc2ccccc2o1)C1(C(=O)Nc2ccccc2)CCN(C(C)C)CC1
  20 | x
7	O=S(=O)(c1ccc(Br)cc1)N(Cl)Cl
  13 | -4.9
8	COc1cc2c(cc1OC)C1=C(C#N)CN(C3CCCCC3)CN1CC2
  -4 | -2.9
9	NC(=O)C[n+]1ccc(/C=N/O)cc1
  23 | x
10	C=CCN1C(=O)C(=O)/C(=C(\O)c2ccccc2)C1c1ccc(OC)cc1 (stereo not drawn)
  7 | -3.8
11	CN(C)c1ccc(/C=C2/Oc3c(ccc(O)c3O)C2=O)cc1
  -145 | 9.2
12	N#Cc1ccccc1CS(=O)(=O)N1CCN(S(=O)(=O)/C=C/c2ccccc2)CC1
  5 | x
13	CCCc1cc(=O)[nH]c(Nc2ccc(CC)cc2)n1
  -4 | 0.2
14	CCNC(=S)N1CCN(Cc2ccccc2)CC1
  -1 | 1.9
15	CCOc1ccc(C(=O)NCCSc2c[nH]c3ccccc23)cc1
  -2 | x
16	Cc1nc(SCC(=O)Nc2ccc(S(=O)(=O)N3CCOCC3)cc2)n(C2CCCCC2)c1C
  4 | x
17	CC(C)=C=CCC(C)O (stereo not drawn)
  9 | 4.2
18	COc1ccc(Cc2nnc3c4cnn(-c5ccc(C)cc5)c4ncn23)cc1
  5 | x
19	O=C(NCCSCc1ccco1)c1ccc2c(c1)S(=O)(=O)c1ccccc1C2=O
  14 | x
20	Cc1nnc(-c2ccccc2)[nH]c1=O
  x | 3.4
21	CCOc1ccc2c(c1)sc(=NC(=O)CN1C(=O)CCC1=O)n2C
  -1 | x
22	CCOc1ccc(-n2cnnn2)cc1S(=O)(=O)N1CCCCC1
  10 | x
23	Nc1ccccc1SCc1ccccc1
  29 | x
24	CC(C)(C)c1ccc(NC(=O)CSc2ccccn2)cc1
  x | 0.8
25	COC(=O)c1csc(S(=O)(=O)N2CCCC2)c1OC
  x | -2.5
26	CCCc1cc(=O)oc2n[nH]c(C)c12
  x | -1.2
27	N#Cc1c(SCc2ccccc2Cl)nc2c(c1C(F)(F)F)CCc1occc1-2
  15 | 3.3
28	C=CCSc1nc2ccc(N=Cc3cc(Cl)ccc3O)cc2s1
  -5 | 20
29	CN(C)C(=O)COc1ncnc2ccc(Br)cc12
  -6 | x
30	S=C1NCN(Cc2ccccc2)CN1
  x | -0.2
31	COC(=O)c1ccc(NCC(=O)c2ccc(OC)cc2)cc1
  -5 | x
32	c1cc(-c2nc3cc(Cc4ccc5oc(-c6ccncc6)nc5c4)ccc3o2)ccn1
  32 | x
33	CCN(CC)c1ccc(CN2CCc3ccccc3C2)cc1
  4 | 0.7
34	O=C(CSc1nncc2ccccc12)N1CCOCC1
  -11 | x
35	CSC1=N/C(=C\c2ccccc2O)C(=O)N1Cc1ccc(Cl)cc1
  x | 1.6
36	CCCc1[nH]nc2c1C1(CCN(C)CC1C)C(C#N)=C(N)O2 (stereo not drawn)
  -35 | x
37	Cc1ccccc1-c1nnn(Cc2ccc(-c3nn[nH]n3)cc2)n1
  0 | 5.8
38	COc1cc(C2N(C)c3ccccc3-c3nc4ccccc4n32)cc(OC)c1OC (stereo not drawn)
  41 | x
39	COc1cccc2sc(=NC(=O)c3cccc(C(F)(F)F)c3)n(C)c12
  -9 | x
40	O=C(NCc1ccccc1Cl)C1CCC(=O)N1Cc1ccc(F)cc1 (stereo not drawn)
  4 | 0.0
41	O=c1/c(=C/c2c(F)cccc2Cl)sc2nc3ccccc3n12
  -17 | x
42	CCOC(=O)/C=C1\SCC(=O)N1CC(=O)N1CCN(S(=O)(=O)c2ccc3ccccc3c2)CC1
  10 | x
43	O=C(Nc1ccc2c(c1)OCCO2)c1csc2c1CCCC2
  24 | 0.3
44	Cc1cccc(NC(=O)c2cn(-c3ccccc3)nc2-c2cccnc2)c1
  -11 | -3.0
45	COc1ccc(C(=O)Nc2ccc(S(=O)(=O)Nc3nccnc3OC)cc2)cc1
  2 | 2.0
46	COC(=O)/C=c1\sc2nc3ccccc3n2c1=O
  x | -1.9
47	CCN(CC)N=Nc1ccc(NC(C)=O)cc1
  0 | 2.4
48	O=C(NCCn1ccc2ccccc21)c1cccs1
  -26 | x
49	CCc1cc2c3c(c1)/C(=C1/SC(N)=NC1=O)C(=O)N3C(C)(C)C=C2C
  11 | 1.1
50	COC(=O)/C(=C(/O)c1ccccc1)c1nc2ccccc2[nH]1
  12 | x
51	CCCCc1ccc(C(=O)/C=C2\NC(=O)CS2)cc1
  11 | x
52	Brc1ccc2cc[nH]c2c1
  x | 2.5
53	Cc1ccc(NC(=O)CSc2nnc3ccccn23)c(C)c1
  -16 | x
54	Clc1ccccc1C1=NC2=S(O1)OC(c1ccccc1Cl)=N2
  8 | x
55	CCN(CC)C(=O)CSc1nnc(C(C)N(C)C)n1-c1ccc(F)cc1 (stereo not drawn)
  -9 | x
56	COc1ccc2nnc(-c3ccc(C(F)(F)F)cc3)n2n1
  x | -3.6
57	CN(Cc1ccccc1)Cc1cccnc1
  15 | -4.9
58	C/C(=N\O)C(=O)NCC1CCNCC1
  -22 | x
59	Cc1cc(C)nc(N2CCC(NC(=O)OC(C)(C)C)CC2)n1
  -20 | x
60	CN(C)c1ccc(C(=S)N2CCN(c3ccccc3F)CC2)cc1
  26 | -1.6

Compound profiles (already shown). Values in the order: Sa helicase inh | MgrA-DNA mod
Listed for `Cc1cccc(NC(=O)c2cn(-c3ccccc3)nc2-c2cccnc2)c1` → -11 | -3.0
Listed for `C/C(=N\O)C(=O)NCC1CCNCC1` → -22 | x
Listed for `Cc1ccc(NC(=O)CSc2nnc3ccccn23)c(C)c1` → -16 | x
Listed for `CCCc1[nH]nc2c1C1(CCN(C)CC1C)C(C#N)=C(N)O2` (stereo not drawn) → -35 | x
Listed for `Brc1ccc2cc[nH]c2c1` → x | 2.5

(further entries)
Values run as follows: Sa helicase inh | MgrA-DNA mod
61	Cc1ccccc1C1CCC(=O)NC1 (stereo not drawn)
  0 | x
62	Cc1nc2ccc(F)cc2c2c1COC2
  20 | x
63	COC(=O)c1ccc(NC2CCCCC2)c(N)c1
  -13 | x
64	O=C(O)CCC(=O)c1ccccc1
  6 | 0.5
65	CCC(Sc1nc2cc(OC)c(OC)cc2c(=O)n1Cc1ccco1)C(=O)Nc1cccc(OC)c1 (stereo not drawn)
  -1 | x
66	CN1CCN(C(=O)CSc2nc3ccccc3n2C)CC1
  1 | x
67	O=c1c2cc3sccc3n2cc(-c2ccccc2)n1-n1cccc1
  10 | -0.8
68	COc1ccc(C)cc1-n1c(SCC(=O)N(C)C2CCS(=O)(=O)C2)nc2ccccc2c1=O (stereo not drawn)
  11 | x
69	Cc1cc(-n2ncc(C#N)c2N)nc2ccccc12
  -15 | x
70	CC1CCCCN1C(=S)NC(=O)c1cccs1 (stereo not drawn)
  10 | x
71	C[N+](C)=C/C=C(\N)SCc1cc(F)cc2c1OCOC2
  x | -0.4
72	Cc1cc(C)n(C(=O)CCC(=O)NCc2ccccc2)n1
  9 | -2.0
73	Nn1c(SCc2csc(-c3ccccc3)n2)nnc1-c1cccs1
  1 | x
74	Cc1c(C)c(C)c(C(C)O)c(C)c1C (stereo not drawn)
  x | -0.3
75	O=C(O)c1cc(Br)cc(Br)c1
  x | -0.9
76	Cc1ccc(C2=NNC(=S)C3=CNc4ccccc4N32)cc1
  -3 | 1.4
77	Cn1c(-c2ccc(Br)cc2)n[nH]c1=S
  -4 | x
78	COc1ccc(OCC(O)CNC(=O)c2ccc(N(C)C)cc2)cc1 (stereo not drawn)
  x | 0.1
79	CCCCn1c(-c2nonc2N)nc2ccccc21
  9 | x
80	Cc1ccc(/C=C/S(=O)(=O)N2CCC(C(=O)O)CC2)cc1
  7 | x
81	COCCOC(=O)C1=C(C)NC2=C(C(=O)CC(c3ccccc3)C2)C1c1cc2c(cc1Br)OCO2 (stereo not drawn)
  x | 3.2
82	O=C(Nc1csnc1-c1c(Cl)cccc1Cl)NN1CCOCC1
  -5 | x
83	Cc1cc(C)nc(-n2nc(C)cc2NC(=O)CN2CCCC2)n1
  9 | x
84	CSc1nc(-c2ccc(Cl)cc2)[nH]c(=O)n1
  x | -4.7
85	COC(=O)c1cc(S(=O)(=O)NC2CCCCC2C)c[nH]1 (stereo not drawn)
  4 | 0.9
86	NCc1ccsc1
  14 | x
87	CC12CC(NC(=O)N1c1ccc(C(=O)N3CCN(Cc4ccc5c(c4)OCO5)CC3)cc1)c1cc(Cl)ccc1O2 (stereo not drawn)
  33 | x
88	COC(=O)Cn1c2ccc(C)cc2c2nc3ccccc3nc21
  -20 | x
89	CN(C(=O)Cn1c(=O)n(CC(=O)NCCc2ccccc2)c(=O)c2sccc21)C1CCCCC1
  4 | -1.3
90	Cc1cc2nc3c(c(C(F)(F)F)n2n1)CCCC3
  9 | -2.1

2 records drawn at random from the list so far:
Values run as follows: Sa helicase inh | MgrA-DNA mod
70	CC1CCCCN1C(=S)NC(=O)c1cccs1 (stereo not drawn)
  10 | x
72	Cc1cc(C)n(C(=O)CCC(=O)NCc2ccccc2)n1
  9 | -2.0

(listing goes on)
Values run as follows: Sa helicase inh | MgrA-DNA mod
91	CCOC(=O)c1c(C(C)(C)C)oc2ccc(OCC(=O)OC)cc12
  -4 | 1.6
92	O=C(COC(=O)c1ccccc1Br)NCC1CCCCC1
  -4 | -0.5
93	Cc1ccc(CNC(=O)C2c3ccccc3C(=O)N3CCc4ccccc4C23)cc1 (stereo not drawn)
  5 | -1.1
94	CC1CC(C)CN(CCC(=O)Nc2ccccc2F)C1 (stereo not drawn)
  -5 | 0.2
95	CCc1cccc2c(N=O)c(O)[nH]c12
  5 | x
96	CCOC(=O)c1cnc2c(ccc3ccccc32)c1NCCN1CCOCC1
  15 | x
97	Cc1cc(C)n2nc(CNS(=O)(=O)c3cccc4nsnc34)nc2n1
  8 | -2.0
98	Nn1c(NNC(=O)c2ccccc2)nnc(-c2cccs2)c1=O
  -1 | x
99	CCOc1ccc(Cl)cc1S(=O)(=O)N1CCCC(C)C1 (stereo not drawn)
  -13 | x
100	O=C(NCCSCc1ccco1)Nc1ccc(OC(F)(F)F)cc1
  x | -2.9
101	CCN(CC(=O)Nc1cccc(OC)c1)Cc1cc(=O)oc2cc(NC(C)=O)ccc12
  12 | x
102	CC(c1nnc(SCc2cc(=O)n3ccsc3n2)n1-c1ccc(Cl)cc1)N1CCCCC1 (stereo not drawn)
  17 | x
103	COc1ccc2oc(=O)cc(CN3CCCCC3)c2c1
  -9 | x
104	CCN1CCN(C(C)C(=O)N(C(C)C)C(C)C)CC1 (stereo not drawn)
  9 | 3.2
105	O=C(COc1ccccc1)Nc1ccc2[nH]c(=O)[nH]c2c1
  -10 | x
106	CC(C)(C)c1csc(-c2ccc(-n3cncn3)nc2)n1
  x | 0.1
107	O=C(CC1OC(=O)c2ccccc21)c1cc(O)ccc1O (stereo not drawn)
  12 | x
108	CCOc1ccc2nc(N3CCC(C(=O)N4CCCCC4)CC3)sc2c1
  -8 | 7.9
109	COc1ccc(N/C=C(/C#N)c2cccs2)cc1
  x | -0.6
110	Cc1ccc2nc(C)c3cc(C)oc3c2c1
  22 | 4.8
111	CC(C)OC(=O)Cc1csc(-c2ccc(Oc3ccc(C(F)(F)F)cn3)cc2)n1
  x | -2.5
112	O=C(c1ccc(Cl)cc1)N1CCCC(C(=O)N2CCCc3ccccc32)C1 (stereo not drawn)
  -1 | x
113	COc1ccc(COC(=O)C2=C(C)NC(=O)NC2c2cc(OC)ccc2OC)cc1 (stereo not drawn)
  x | -0.1
114	CC1=[N+]([O-])C(C)(C)CC(C)c2ccccc21 (stereo not drawn)
  -31 | x
115	COc1ccc(O)c(C(C)=O)c1
  x | -0.1
116	O=C(CC12CC3CC(CC(C3)C1)C2)N1CCCC1CO (stereo not drawn)
  -7 | x
117	COc1ccc2nc(C(=O)O)sc2c1
  -3 | 2.0
118	CCn1c2ccccc2c2cc(NC(=O)CSc3nncn3C)ccc21
  15 | -0.9
119	Cc1c(-c2ccccc2)nc2ccccc2c1C(=O)O
  -2 | 13
120	O=C1CCc2cc(C(=O)CSc3ccc(Cl)cc3Cl)ccc2N1
  x | 3.5
121	O=C(CN1C(=O)COc2ccc(Cl)cc21)N1CCc2ccccc21
  7 | -0.2
122	CS(=O)(=O)Nc1ccccc1C(=O)OCC(=O)Nc1ccccc1C(F)(F)F
  12 | x
123	CCN(C(=O)c1cnccc1C(F)(F)F)c1c(C)cccc1C
  x | 0.1
124	Cc1ccc(C2=CC(c3ccccc3)SC(N)=N2)cc1 (stereo not drawn)
  9 | 0.2
125	CN(C)c1cccc(C(=O)OCc2cc(=O)oc3cc(O)ccc23)c1
  8 | x
126	COc1ccc(CCC(=O)Nc2ccc3nc4n(c(=O)c3c2)CCCC4)cc1
  7 | x
127	O=C(Nc1ccc(OC(F)(F)F)cc1)Oc1ccccc1N1CCOCC1
  x | 0.7

Sorted by molecular weight (rising): some entries from above.
Values run as follows: Sa helicase inh | MgrA-DNA mod
84	CSc1nc(-c2ccc(Cl)cc2)[nH]c(=O)n1
  x | -4.7
121	O=C(CN1C(=O)COc2ccc(Cl)cc21)N1CCc2ccccc21
  7 | -0.2
28	C=CCSc1nc2ccc(N=Cc3cc(Cl)ccc3O)cc2s1
  -5 | 20

Bioassay records (PubChem)
